Screening results from PubChem BioAssay.
D2 agonist – agonists of human D2 dopamine receptor (beta-arrestin); AID 624465; P14416; activation, % (test concentration not listed); 360,000 tested, 0.084% active; DiscoveRx PathHunter D2 beta-arrestin, luminescence, 90 min; 100% = 57 uM dopamine signal; in the data active = activation above about 40%; inconclusive = about 15% to 40%; inactive = below about 15%; note: compound concentration not given in the record; the text of the record calls up to 30% inactive
Target sequence (P14416 whole entry, looked up): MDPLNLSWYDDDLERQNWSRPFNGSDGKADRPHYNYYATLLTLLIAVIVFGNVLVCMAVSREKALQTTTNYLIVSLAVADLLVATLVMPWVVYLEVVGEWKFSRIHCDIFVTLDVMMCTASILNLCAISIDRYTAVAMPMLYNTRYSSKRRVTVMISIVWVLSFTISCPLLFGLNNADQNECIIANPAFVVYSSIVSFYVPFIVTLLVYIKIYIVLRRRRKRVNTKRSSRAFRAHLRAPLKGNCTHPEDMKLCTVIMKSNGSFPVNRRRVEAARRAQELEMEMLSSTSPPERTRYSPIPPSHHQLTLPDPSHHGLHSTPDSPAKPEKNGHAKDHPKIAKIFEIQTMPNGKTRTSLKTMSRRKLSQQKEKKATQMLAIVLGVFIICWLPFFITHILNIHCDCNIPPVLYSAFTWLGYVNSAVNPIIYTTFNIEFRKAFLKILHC
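DiscoveRx PathHunter D2 beta-arrestin cells (2,100/well) attached overnight, then compound-stimulated 90 min at 37 C in HBSS/10 mM HEPES/0.1% Tween-20 buffer; beta-galactosidase complementation read by luminescence after 1 h at ambient temperature. Dopamine 57 uM final (EC100) as control.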
Menin MLL FP FL – displaces fluorescein MLL peptide from human menin. Fluorescence polarization, fluorescein-MLL peptide displacement from menin. FP activity change, % at 61.4 µM. 290,000 tested, under 10 active; inconclusive = falling polarisation curve, or a change in total fluorescence; inactive = total fluorescence flat and polarisation flat or rising; no compound was filed as active; the % refers to the polarisation; negative = inhibition;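 note: % of control where 0% means no effect; inhibitors lower the polarisation; unlabelled MLL peptide was the positive control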
gsp antagonist – antagonists of gsp mutant (McCune-Albright syndrome); gsp-mutant cells, cAMP HTRF, 30 min; control for the full effect not named in the record; Potency, µM (series often up to 76.9 µM), without a hit: top-dose activity change, negative = inhibition, most hits filed as inhibitors; 340,000 tested, 0.4% active; active = falling curve of any shape with a large fitted effect; inconclusive = falling curve, mostly with a smaller effect; inactive = flat or rising curve; cell line not stated here;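 note: intracellular cAMP measured with PDE inhibitor Ro 20-1724 present during compound exposure; potency is the fitted concentration of half-maximal effect; % is set by controls: 0 for no effect and ±100 for the full control effect; nearly all actives have a fitted effect of over 65% in size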
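Measurement of cellular cAMP by homogeneous time-resolved fluorescence following a 30 min compound exposure at 37C. The PDE inhibitor […] was present throughout; the assay buffer was DPBS with 0.05% BSA and 0.005% Tween 20.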
ClpP mod – qHTS Assay for Activators of ClpP; AID 651965, 2013; ATP-dependent Clp protease proteolytic subunit (Bacillus subtilis (strain 168)), P80244; purified B. subtilis ClpP, FRET peptide cleavage, 20 min; Potency, µM (top dose mostly 57.5 µM), for inactives: top-dose activity change, negative = active; 340,000 tested, 1.9% active; active = well fitted falling curve with a large enough effect; inconclusive = small, poorly fitted or top-dose-only effect; inactive = no such curve, though single readings can be large or run the other way; note: potency is the fitted concentration of half-maximal effect; the source files actives as falling curves though it sought activators and does not explain the sign; nearly all actives have a fitted effect of over 65% in size; many hits overshoot -100%
Target sequence (P80244 whole entry, looked up): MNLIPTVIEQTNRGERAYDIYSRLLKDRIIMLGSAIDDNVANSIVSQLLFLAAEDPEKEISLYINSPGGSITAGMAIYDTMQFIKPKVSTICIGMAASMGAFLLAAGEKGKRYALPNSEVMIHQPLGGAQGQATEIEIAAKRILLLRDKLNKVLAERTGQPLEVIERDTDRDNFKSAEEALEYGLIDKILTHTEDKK
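Purified B. subtilis ClpP, 10 microg/mL final in Tris/HCl pH8 with KCl, BSA, glycerol and Tween-20, cleaved an Abz/nitrotyrosine-quenched decapeptide. Fluorescence (ex 320, em 430) was read at 0 and 20 min at room temperature. Delta was normalized to 5.8 microM ADEP and DMSO/no-enzyme controls.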
Sfp PPTase inh – Sfp phosphopantetheinyl transferase inhibition; Q9F4F7; Biochemical Sfp PPTase activity, qHTS; Potency, µM, inactives show max response, negative = inhibition, hits mostly inhibitors; 310,000 tested, 3.5% active; AID 1490; active = well fitted inhibition curve with a large enough effect; inconclusive = small, poorly fitted or top-dose-only effect, or another doubt; inactive = no such curve, though single readings can be large or run the other way;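 note: the enzyme is Sfp with the accession as filed and its product quenches rhodamine fluorescence; potency is the fitted concentration of half-maximal effect; 0% = enzyme reaction without inhibitor and -100% = no enzyme wells; top concentration of the series not given in the record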
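Step 1, compound plus 15 nM Sfp-PPTase, 15 min, room temperature. Step 2, add rhodamine-CoA (5 uM) and BHQ-2-YbbR (12.5 uM). Step 3, read 525/598 nm fluorescence at 0 and 30 min.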
PINK1 modulator – PINK1 expression modulation | 410,000 tested, 0.2% active | Potency, µM (series often up to 76.6 µM), inactives show at the highest dose activation (PINK1 increase), actives largely listed as activators | PINK1 immunofluorescence, high-content cytometry, 24 h; active = well fitted activation curve with a large enough effect; inconclusive = small, poorly fitted or top-dose-only effect; inactive = flat fitted curve, though single readings scatter; cell line not stated here;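 note: potency is the fitted concentration of half-maximal effect; % of control where 0% means no effect; nearly all actives have a fitted effect of over 65% in size; a mitochondrial uncoupler was the plate control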
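Decision-based qHTS: stable cells, 24 h exposure to five compound concentrations, CCCP as control. Fixed cells stained for PINK1 plus nuclear, mitochondrial and cell markers, cytometer read.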
gsp agonist – activates gsp, the McCune-Albright syndrome mutation; gsp mutant cells, cAMP HTRF, 30 min; control for the full effect not named in the record; 340,000 tested, 0.13% active; Potency, µM (highest dose often 76.9 µM), for inactives: at the top dose activation (cAMP increase), most hits filed as activators; AID 624287; active = well fitted activation curve with a large enough effect; inconclusive = small, poorly fitted or top-dose-only effect, or another doubt; inactive = no such curve, though single readings can be large or run the other way; cell line not stated here;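 note: phosphodiesterase inhibitor Ro 20-1724 added with compounds to block cAMP breakdown; potency is the fitted concentration of half-maximal effect; nearly all actives have a fitted effect of over 60% in size; about a fifth of the inactives were tested at one dose only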
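Cells in DMEM/10% FBS with G418 were pretreated with compounds in DMSO plus […] (300 uM stock) for 30 min at 37C. cAMP was measured by HTRF (cAMP-d2 plus anti-cAMP antibody-K) after 30 min at room temperature.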
An asterisk follows results filed as active; ? = inconclusive; · = no result given; & = joins results of further samples; [ ] = another dose, or the depositor's remark.

SMILES	D2 agonist	Menin MLL FP FL	gsp antagonist	ClpP mod	Sfp PPTase inh	PINK1 modulator	gsp agonist
COC(=O)c1sc2ccccc2c1NC(=O)c1ccc(S(=O)(=O)N2CCCCC2C)cc1 (stereo unspecified)	-6.4	-0.5	-3%	?	2%	4.2%	1%
O=C(c1noc2c1CCCC2)N1CCc2ccccc2C1	-3.2	4.2	3%	·	6%	-0.2%	1%[15.4 µM]
O=C(COc1cccc(-n2cnnn2)c1)N1CCOCC1	-1.4	3.5	9%	-2.5%	10%	0.4%	6%
CCOc1ccc(/C=C/C(=O)Nc2ccc(OC)cc2[N+](=O)[O-])cc1	2.4	3.6	11%	10µM*	2%	?	17%
COc1ccc(-c2nc3ccccc3s2)cc1NC(C)=O	-2.0	-3.3	-12%	-3.6%&3.7%	8%	2.0%&-0.6%	13%[15.4 µM]
O=C(O)c1ccc(C2(c3ccc(C(=O)O)cc3)OC(=O)c3ccccc32)cc1	3.2	1.4	-15%	-1.4%	4%	-0.7%	-55%[inhibitor]
COc1ccc2[nH]cc(CCNC(=O)Cc3c(F)cccc3Cl)c2c1	-2.3	2.6	-1%	-0.4%	19%	-0.6%	-3%[15.4 µM]
Cc1cc(OCC(O)CNC(C)(C)C)ccc1Cl (stereo unspecified)	-2.6	-2.1	5%	·	17%	0.0%	-13%[15.4 µM]
O=C(c1ccc([N+](=O)[O-])c(CS(=O)(=O)c2ccc(Cl)cc2)c1)N1CCCCC1	0.5	2.1	-10%	·	4%	0.8%	17%[15.4 µM]
O=C1CCC(C(=O)N2CCSCC2)CN1Cc1ccc(Cl)cc1 (stereo unspecified)	-0.4	-4.0	0%	-3.7%	15%	-0.1%	23%
Cc1c(Cl)cccc1NC(=O)CCN1C(=O)C2CC=CCC2C1=O (stereo unspecified)	-0.8	·	11%	11%	20%	-1.7%	23%
CNC(=O)C1(C)C=CC2(CCCCC2)N1C(=O)OC (stereo unspecified)	-3.4	5.8	8%	3.8%	17%	0.7%	32%
Cc1c(C(=O)OCC(=O)N2CCC(C)CC2)oc2ccccc12	1.2	·	9%	-19%	·	2.7%	2%[15.4 µM]
CCOc1ccc(N(C(C)C(=O)Nc2cccnc2)S(C)(=O)=O)cc1 (stereo unspecified)	3.5	-3.6	8%	·	11%	-0.2%	-3%
COc1cc(NC(=O)CS(=O)(=O)c2ccccc2)cc(OC)c1OC	-2.8	0.9	6%	1.6%	20%	1.2%	12%
O=C(N=Nc1c(O)n(Cc2ccccc2)c2ccccc12)c1ccncc1	0.2	3.8	?	-1.3%	-16%	0.2%	0%
O=C(Cn1c(=O)oc2ccccc21)NCc1ccco1	-9.3	5.0	1%[15.4 µM]	-1.0%	28%	0.5%	-29%
O=C(NCCOC(=O)C1COc2ccccc2O1)C1COc2ccccc2O1 (stereo unspecified)	-3.4	1.2	-6%	2.3%	13%	50%[38.3 µM]	22%
CCOC(=O)c1[nH]c(C)c(/C(O)=C2\C(=O)C(=O)N(CCN(C)C)C2c2ccco2)c1C (stereo unspecified)	-0.9	2.1	3%	-0.1%	0%	4.1%	?
COc1cccc(C(=O)N2CCN(Cc3ccc(OC)cc3OC)CC2)c1	-4.3	-6.5	-4%	-0.4%	-22%	0.1%	3%
CCOC(=O)C1CCN(S(=O)(=O)c2ccc3c(c2)NC(=O)C(C)S3)CC1 (stereo unspecified)	5.1	0.6	-2%	-2.5%	9%	0.5%	-70%[inhibitor]
CCOC(=O)N1CCC(NC(=O)CSCc2nc(-c3sccc3C)oc2C)CC1	-0.8	4.2	-3%	4.7%	5%	-1.3%	29%
Nc1nonc1-n1nnc(C(=O)N/N=C/c2cccnc2)c1-c1cccs1	4.2	·	1%	-8.3%	15%	0.2%	-41%[inhibitor]
O=C1c2ccccc2CN1CCSC(=S)N1CCOCC1	4.7	4.5	3%	-3.5%	-3%	-2.4%	2%
N#Cc1ccc(OCC(=O)NNC(=O)C2CCCCC2)cc1	0.6	·	2%	-5.5%	·	-1.8%	22%
COC(=O)CC1COc2ccccc2N1C(=O)c1cccc(Cl)c1 (stereo unspecified)	-0.5	1.3	-9%	0.6%	-1%	-4.0%	-49%[inhibitor]
COc1ccc2[nH]cc(CCNc3ncnc4ccc(-c5ccccc5OC)cc34)c2c1	·	0.6	·	·	2%	0.7%	·
Cc1cc(Cl)ccc1C(O)c1ncc(-c2cccc3ccccc23)[nH]1 (stereo unspecified)	-4.2	·	·	4.2%	·	?	·
COC(=O)c1ccccc1NC(=O)CCCn1nc([N+](=O)[O-])c(Br)c1C	-28	0.0	8%	-3.4%	15%	1.0%	-93%[inhibitor]
COCCNC(=O)C(c1ccc(F)cc1)N(Cc1ccco1)C(=O)CCC(=O)Nc1nccs1 (stereo unspecified)	-3.6	2.8	7%	1.8%	7%	3.2%	-8%
Cc1nn(-c2nc3ccccc3s2)c(N)c1-c1ccccc1	-0.1	0.0	-18%	0.3%	-3%	5.3%[38.3 µM]	-6%
O=C(NCc1csc(-c2cccs2)n1)c1ccccc1	-3.1	-9.8	-7%	?	-2%	-0.3%	30%
O=C(NC[C@H]1CCCO1)c1cccc2c1C(=O)c1ccc(-c3ccc(F)cc3OCc3ccccc3)cc1S2(=O)=O	11	·	?	-3.3%	·	0.6%	0%
CCOc1cc(/C=N/NC(=O)c2ccc(NC(=O)C3CC3)cc2)ccc1O	0.6	·	6%	-4.2%	-2%	0.0%	-10%
CCc1ccc(CN(C)C(=O)c2cc(COc3cccc(C(F)(F)F)c3)on2)nc1	-1.7	0.5	7%	0.4%	3%	0.8%	11%
CS(=O)(=O)c1ccc(C(=O)Nc2ccc(N3CCOCC3)cc2)c(Cl)c1	-3.4	-1.5	0%	·	22%	1.9%	-24%
COc1ccc(S(=O)(=O)N2CCC(C(=O)N3CCCCCC3)CC2)cc1	0.7	9.6	2%	3.9%	0%	-0.3%	-14%
COc1ccccc1C(=O)Nc1cc(C)on1	-6.6	3.2	10%	-0.5%	17%	0.2%	-9%[15.4 µM]
COc1cc(OC)cc(C(=O)NC(=S)NCc2ccco2)c1	0.8	-0.1	-9%	-2.7%	-13%	-2.2%[38.3 µM]	21%
CC(CC(=O)Nc1cc([N+](=O)[O-])ccc1Cl)c1ccccc1 (stereo unspecified)	-0.4	1.3	4%	0.3%	-1%	0.1%	-34%[inhibitor]
CN(CC(=O)Nc1c(Cl)cccc1Cl)C(=O)c1cc(-c2cccs2)nn1-c1ccccc1	-1.9	·	?	-23%	·	-0.8%	-1%
O=C(NCc1ccc2c(c1)OCO2)C1COc2ccccc2O1 (stereo unspecified)	-2.5	-2.6	-3%	1.4%	10%	-1.6%	-16%
CCn1cc(/C=C(\NC(=O)c2cc(OC)c(OC)c(OC)c2)C(=O)NCCN2CCOCC2)c2ccccc21	-0.2	3.5	7%	-1.8%	18%	-1.9%	-8%
Cc1cc(C)c2[nH]c(=O)c(CN(Cc3ccc4c(c3)OCO4)Cc3nnnn3C3CCCC3)cc2c1	-2.4	0.5	-8%	?	6%	-2.7%[38.3 µM]	-16%
CSCc1ccc(C(=O)NCC(c2cccs2)N2CCOCC2)cc1 (stereo unspecified)	1.2	·	6%	-4.0%	·	1.8%	?

Results in Sfp PPTase inh and gsp antagonist, for 5 of the compounds above:
compound	Sfp PPTase inh	gsp antagonist
CCOc1cc(/C=N/NC(=O)c2ccc(NC(=O)C3CC3)cc2)ccc1O	-2%	6%
CCc1ccc(CN(C)C(=O)c2cc(COc3cccc(C(F)(F)F)c3)on2)nc1	3%	7%
CS(=O)(=O)c1ccc(C(=O)Nc2ccc(N3CCOCC3)cc2)c(Cl)c1	22%	0%
COc1ccc(S(=O)(=O)N2CCC(C(=O)N3CCCCCC3)CC2)cc1	0%	2%
COc1ccccc1C(=O)Nc1cc(C)on1	17%	10%

(cont.)
SMILES	D2 agonist	Menin MLL FP FL	gsp antagonist	ClpP mod	Sfp PPTase inh	PINK1 modulator	gsp agonist
Cn1ccc(C(=O)N2CCCc3ccccc32)n1	-1.8	1.9	-5%	-1.9%	7%	2.0%	?
CS(=O)Cc1cc(Sc2ccccc2)nc(-c2cccnc2)n1 (stereo unspecified)	-7.4	-4.3	12%	·	14%	0.7%	16%[15.4 µM]
N#Cc1c2n(c3c(=O)n(Cc4ccc(Cl)cc4)cnc13)CCCC2	0.7	0.1	15%	?	5%	-1.2%	?
C=CCOC(=O)C1=C(C)NC(SCC(=O)Nc2ccc(C)c(Cl)c2)=C(C#N)C1c1ccco1 (stereo unspecified)	-1.0	-0.5	15%	1.4%	35µM*	8.7%	-34%[inhibitor]
Cc1cc(NC(=O)CCn2c(=O)sc3ccccc32)no1	1.7	·	10%	1.0%	·	6.1%[38.3 µM]	-2%
O=C(Cn1c(=O)n(CCc2c[nH]c3ccccc23)c(=O)c2cccnc21)Nc1ccccc1F	-30	0.5	-3%	-5.8%	11%	0.2%	13%
C=CCN1CC(C(=O)N2CCC(Cc3ccc(Cl)cc3)(C(=O)OCC)CC2)CC1=O (stereo unspecified)	-0.9	-2.7	-6%	-0.4%	25%	-0.6%	16%
O=C(Nc1ccccc1)Nc1cc(Cl)cc(Cl)c1	7.0	-0.7	?	-0.9%	-14%	?	0%
Cc1ccc([C@H]2C[C@@H](n3cc(C4CC4)nn3)[C@H](O)CN2CC2CCCCC2)cc1	-11	·	·	0.1%	·	1.1%	-2%
O=C(CSc1ncn[nH]1)Nc1nc(-c2cccc([N+](=O)[O-])c2)cs1	0.0	-6.1	?	2.3%	12%	3.2%	?
